# Assay outcomes: PubChem, National Center for Advancing Translational Sciences (NCATS)
# CtBP-E1A inh = inhibitors of CtBP/E1A interaction; AlphaScreen GST-E1A/His-CtBP binding, 1536-well; stronger effect = lower value; control for the full effect not named in the record; activity change, % (no concentration beside the values); 340,000 tested, 0.49% active; in the data active means activity change below about -65%; inconclusive means about -30% to -65%; inactive means above about -30%; further: on the % scale 0 is the no-effect control and ±100 the full control effect; compound concentration not given in the record
#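 In 5 uL wells, 23 nL compound meets equimolar GST-E1A and His-CtBP (5X stock 125 nM each) for 2 h, 37 °C. Beads (5X, 50 ug/mL) then 1 h, 37 °C, dark.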
# ClpP mod = qHTS Assay for Activators of ClpP; ATP-dependent Clp protease proteolytic subunit (Bacillus subtilis (strain 168)), P80244; purified B. subtilis ClpP, FRET peptide cleavage, 20 min; Potency, µM (highest dose often 57.5 µM), inactives show at the highest dose activity change, negative = active; 340,000 tested, 1.9% active; AID 651965, 2013; active = well fitted falling curve with a large enough effect; inconclusive = small, poorly fitted or top-dose-only effect; inactive = no such curve, though single readings can be large or run the other way; further: potency means the concentration at half of the fitted maximal effect; the source files actives as falling curves though it sought activators and does not explain the sign; nearly all actives have a fitted effect of over 65% in size; many hits overshoot -100%
# Target sequence (P80244 whole entry, looked up): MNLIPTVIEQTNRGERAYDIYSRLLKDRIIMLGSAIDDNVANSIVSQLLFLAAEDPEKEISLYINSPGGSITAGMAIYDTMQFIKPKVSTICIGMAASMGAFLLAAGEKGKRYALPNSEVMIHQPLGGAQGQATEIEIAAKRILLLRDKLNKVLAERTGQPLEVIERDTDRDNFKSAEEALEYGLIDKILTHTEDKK
#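 FRET quenching reversal measured ClpP activation: 10 microg/mL B. subtilis ClpP at pH 8 with the FRET-FV decapeptide, read at 430 nm after 320 nm excitation. The 20-min minus 0-min signal was scaled between DMSO/no-enzyme wells and ADEP (5.8 microM final).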
# gsp agonist = activates gsp, the McCune-Albright syndrome mutation; gsp mutant cells, cAMP HTRF, 30 min; control for the full effect not named in the record; Potency, µM (series often up to 76.9 µM), without a hit: at the highest dose activation (cAMP increase), actives largely listed as activators; 340,000 tested, 0.13% active; AID 624287; active = well fitted activation curve with a large enough effect; inconclusive = small, poorly fitted or top-dose-only effect, or another doubt; inactive = no such curve, though single readings can be large or run the other way; cell line not stated here;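 further: phosphodiesterase inhibitor Ro 20-1724 added with compounds to block cAMP breakdown; potency means the concentration at half of the fitted maximal effect; nearly all actives have a fitted effect of over 60% in size; about a fifth of the inactives were tested at one dose only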
#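 Cells in DMEM/10% FBS with G418 were pretreated with compounds in DMSO plus […] (300 uM stock) for 30 min at 37C. cAMP was measured by HTRF (cAMP-d2 plus anti-cAMP antibody-K) after 30 min at room temperature.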
# Sfp PPTase inh = Sfp phosphopantetheinyl transferase inhibition | Q9F4F7 | Biochemical Sfp PPTase activity, qHTS | Potency, µM, inactives show max response, negative = inhibition, hits mostly inhibitors | 310,000 tested, 3.5% active | AID 1490; active means well fitted inhibition curve with a large enough effect; inconclusive means small, poorly fitted or top-dose-only effect, or another doubt; inactive means no such curve, though single readings can be large or run the other way;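 further: the enzyme is Sfp with the accession as filed and its product quenches rhodamine fluorescence; potency means the concentration at half of the fitted maximal effect; 0% = enzyme reaction without inhibitor and -100% = no enzyme wells; top concentration of the series not given in the record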
#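 Step 1, compound plus 15 nM Sfp-PPTase, 15 min, room temperature. Step 2, add rhodamine-CoA (5 uM) and BHQ-2-YbbR (12.5 uM). Step 3, read 525/598 nm fluorescence at 0 and 30 min.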
# gsp antagonist = antagonizes gsp, the McCune-Albright syndrome mutation | Potency, µM (series often up to 76.9 µM), for inactives: at the top dose activity change, negative = inhibition, hits mostly inhibitors | AID 624288 | gsp-mutant cells, cAMP HTRF, 30 min; control for the full effect not named in the record | 340,000 tested, 0.4% active; active = falling curve of any shape with a large fitted effect; inconclusive = falling curve, mostly with a smaller effect; inactive = flat or rising curve; cell line not stated here;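 further: intracellular cAMP measured with PDE inhibitor Ro 20-1724 present during compound exposure; potency means the concentration at half of the fitted maximal effect; on the % scale 0 is the no-effect control and ±100 the full control effect; nearly all actives have a fitted effect of over 65% in size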
#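 G418-selected cells were plated in DMEM/10% FBS for 16-24 h at 37C, then treated with compounds plus the PDE inhibitor […] (300 uM solution added) for 30 min at 37C. Intracellular cAMP was measured by HTRF after 30 min lysis at room temperature.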
# TRPV1 PAM = potentiators of human vanilloid receptor 1 (TRPV1); Q8NER1; 320,000 tested, 0.02% active; potentiation, % at 8.33 µM; AID 540277; TRPV1-expressing cells, Fluo-8 calcium influx, capsaicin EC20 potentiation; host cell line not named in the record; control for the full effect not named in the record; active means potentiation above 80%; inconclusive means 30% to 80%; inactive means below 30%; further: 0% is about no effect
# Target sequence (Q8NER1 whole entry, looked up): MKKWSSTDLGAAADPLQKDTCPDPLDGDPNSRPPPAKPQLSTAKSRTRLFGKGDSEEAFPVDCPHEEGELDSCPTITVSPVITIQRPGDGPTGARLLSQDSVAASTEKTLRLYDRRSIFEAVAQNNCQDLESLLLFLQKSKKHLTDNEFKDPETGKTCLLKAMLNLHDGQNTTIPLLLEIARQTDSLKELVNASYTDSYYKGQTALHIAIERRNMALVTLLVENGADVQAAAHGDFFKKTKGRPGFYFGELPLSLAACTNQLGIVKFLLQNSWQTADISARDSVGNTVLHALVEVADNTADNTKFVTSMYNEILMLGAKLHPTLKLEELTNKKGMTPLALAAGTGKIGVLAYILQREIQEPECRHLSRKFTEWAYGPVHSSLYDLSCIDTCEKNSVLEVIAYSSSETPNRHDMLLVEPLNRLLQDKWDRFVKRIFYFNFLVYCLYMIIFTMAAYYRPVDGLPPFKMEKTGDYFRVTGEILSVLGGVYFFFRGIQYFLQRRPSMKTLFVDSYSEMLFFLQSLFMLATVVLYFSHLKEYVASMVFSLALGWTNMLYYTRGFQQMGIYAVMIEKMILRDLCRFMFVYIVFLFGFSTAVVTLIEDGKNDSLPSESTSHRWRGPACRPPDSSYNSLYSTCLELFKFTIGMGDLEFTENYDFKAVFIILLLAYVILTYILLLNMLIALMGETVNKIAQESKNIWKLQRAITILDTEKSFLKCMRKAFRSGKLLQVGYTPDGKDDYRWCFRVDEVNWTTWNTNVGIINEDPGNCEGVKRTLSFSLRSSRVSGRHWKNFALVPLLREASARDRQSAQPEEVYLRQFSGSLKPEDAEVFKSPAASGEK
#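 Cells expressing TRPV1 were dye-loaded with Fluo-8 and read kinetically: 10 s baseline, 3 min after compound (agonist portion), then 2 min after EC20 capsaicin (allosteric enhancer portion). Calcium-bound dye fluorescence at 480/520 nm.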
# Menin MLL FP FL = displaces fluorescein MLL peptide from human menin; Fluorescence polarization, fluorescein-MLL peptide displacement from menin; FP activity change, % at 61.4 µM; 290,000 tested, under 10 active; AID 1766; inconclusive = falling polarisation curve, or a change in total fluorescence; inactive = total fluorescence flat and polarisation flat or rising; no compound was filed as active; the % refers to the polarisation; negative = inhibition;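 further: % of control where 0% means no effect; inhibitors lower the polarisation; unlabelled MLL peptide was the positive control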
# * = called active by the depositor; ? = inconclusive; . = not tested or not shown; & = joins results of further samples; [ ] = dose if it differs, or a comment.
SMILES,CtBP-E1A inh,ClpP mod,gsp agonist,Sfp PPTase inh,gsp antagonist,TRPV1 PAM,Menin MLL FP FL
O=C(Oc1ccccc1-c1nnco1)c1ccc(Cl)cc1,1,4.5%,?,16%,7%,5,1.0
COc1ccc(C(=O)N2CCC(C(=O)c3ccc(F)cc3)CC2)cc1,3,-1.5%,0%,-5%,9%,4,6.4
CC(C)(C)n1cnc2cc(NCc3cccs3)ccc21,-6,-22%,-27%,12%,-4%,?,-7.5
COc1ccc2c(c1OC)C(=O)OC2C1c2c(cc3c(c2OC)OCO3)CCN1C (centres undefined),-29&-13&0,-7.5%&-13%&-1.6%,.,-13%&-6%,-4%&1%&-5%,3&-7&-5,1.2&0.0&1.5
C#CCCC(=O)c1ccccc1/C=[N+](\[O-])c1ccccc1,-4,0.3%,-3%,.,5%,-2,.
CC(=O)c1ccccc1NC(=O)COC(=O)c1cc[n+]([O-])cc1,.,12%,-2%,.,-3%,.,.
O=C(NCc1ccco1)c1ccc(OC2CCN(Cc3ccccn3)CC2)cc1,3,-1.8%,-5%,.,.,.,.
N#Cc1cccc(NC(=S)Nc2ccccc2)c1,3,4.0%,-39%[inhibitor],-19%,14%,-9,5.8
CCOc1ccc(NC(=O)C(=O)NCCN2CCN(S(=O)(=O)c3ccccc3)CC2)cc1,6,-0.6%,4%[15.4 µM],19%,-8%,26,-6.8
CN(Cc1ccccc1)S(=O)(=O)c1ccc(Cl)c(C(=O)NCCCN2CCOCC2)c1,5,-5.9%,-30%,.,10%,-11,.
CCCN(CC(=O)Nc1ccc(F)c(F)c1F)C(=O)c1ccc2c(c1)NC(=O)CS2,-10,-11%,-4%[15.4 µM],.,1%,.,.
O=C(Nc1ccc(Cl)cc1)N[C@@H]1c2c(ccc3ccccc23)OC[C@@H]1CO,2,0.9%,-5%,10%,-10%,.,3.2
CC(=O)c1ccc(S(=O)(=O)N2CCN(c3ccccc3F)CC2)cc1,4,-12%,-3%[15.4 µM],16%,-15%,14,-0.5
O=C(O)CCNC1CCCCC1,.,1.2%,?,19%,-2%,?,0.1
CCN1CCN(C(=S)Nc2ccc(Cl)cc2)CC1,-1,0.3%,2%,9%,12%,-7,1.9
Cc1ccc(NS(=O)(=O)c2c(F)cc(F)c(Cl)c2F)cc1S(=O)(=O)N1CCOCC1,7,1.6%,7%[15.4 µM],.,-24%,.,.
O=C(O)c1cccc(Nc2ncnc3ccc(Br)cc23)c1,-3,-29%,18%[15.4 µM],-2%,-1%,.,0.6
CCOc1ccc(NC(=O)COC(=O)c2ncc(Cl)c(Cl)c2Cl)cc1,13,-0.8%,25%,5%,-3%,2,-0.6
O=C(COC(=O)CC1CC2CCC1C2)NC(=O)NC1CCCC1 (centres undefined),1,-2.3%,9%[15.4 µM],1%,13%,20,-6.0
COc1ccc(C)cc1Nc1nc(-c2ccccc2O)nc2ccccc12,0,-0.9%,?,4%,-4%,-3,-0.4
Cc1ccc(-n2[nH]c(C)c(/C=N/NC(=O)c3cccc([N+](=O)[O-])c3)c2=O)cc1C,.,.,.,-4%,.,-20,-1.9
O=C(NCCCn1ccnc1)c1cnn2c1NC(c1ccccc1)CC2C(F)(F)F (centres undefined),-2,-17%,-4%,16%,0%,-8,0.2
O=C(NCCc1ccccn1)c1nc(Cn2cc([N+](=O)[O-])cn2)no1,0,.,25%[15.4 µM],20%,1%,6,-0.1
COC(=O)C1=C(C)N(CC2CC2)C(=NCCN2CCOCC2)N[C@H]1c1ccccc1,7,-2.5%,.,25%&-2%,8%,3&14,-3.1&-7.4
CC(C)(C)c1nnc(NC(=O)Nc2ccc(Cl)cc2)s1,7,.,-5%[15.4 µM],26%,5%,-10,4.1

# New compounds follow.
SMILES,CtBP-E1A inh,ClpP mod,gsp agonist,Sfp PPTase inh,gsp antagonist,TRPV1 PAM,Menin MLL FP FL
CCN(C(=O)c1ccccc1F)c1nc(-c2ccc(OC)cc2)cs1,15,-4.9%,0%,-6%,-1%,15,-5.1
CCN(CC)C(=O)CN1C(=O)c2cccc3cccc1c23,1,-0.1%,-1%[15.4 µM],22%,4%,29,0.9
O=C(NCc1ccccc1)c1ccc2ccccc2n1,9,.,-1%,3%,3%,1,0.6
O=C(Nc1nc(-c2ccc3ccccc3c2)cs1)c1ccc(N2C(=O)CCC2=O)cc1,6,0.8%,-25%,29%,5%,5,6.7
COc1ccccc1CC(=O)Nc1cccc(C(=O)NN2C(=O)c3ccccc3C2=O)c1,2,-3.3%,?,4%,-10%,-8,0.5
Cc1onc(-c2c(Cl)cccc2Cl)c1C(=O)NCCc1ccc(S(N)(=O)=O)cc1,-1,1.4%,-10%,3%,3%,24,-1.3
N#Cc1c(C(F)(F)F)cc(Cc2ccccc2)nc1SCC(=O)NCC(=O)O,2,0.0%,4%[15.4 µM],.,6%,.,.
Cn1ccnc1SCC(=O)NC1CCCCC1,3,1.1%,-31%[inhibitor],-12%,8%,-1,-4.9
COCCCNC(=O)C(=O)Nc1ccc2c(c1)N(S(=O)(=O)c1cccs1)CCC2,0,1.1%,7%[15.4 µM],.,29%,-14,.
O=C(Nc1cc(-c2ccccc2)nn1-c1c(Cl)cccc1Cl)c1ccc(F)cc1,1,-1.7%,.,.,?,.,.
CCCCC(Sc1nc(N)c(NC(=O)c2ccco2)c(=O)[nH]1)C(=O)O (centres undefined),11,0.3%,21%,-13%,1%,15,-0.4
CC(C)CNC(=O)NC(=O)COC(=O)c1ccccc1Sc1ccc(C(F)(F)F)cc1[N+](=O)[O-],0,2.4%,-1%,10%,-17%,-14,2.3
O=C(c1ccccc1)c1ccc(OC(=O)N2CCOCC2)cc1,-7,-1.8%,0%,-3%,6%,0,-3.3
C#Cc1ccc([C@H]2C=C(C(=O)N3CCN(Cc4ccccc4)CC3)O[C@@H](OCc3ccc(CO)cc3)C2)cc1,-11,-5.7%,.,2%,-14%,4,14
O=C(CCCN1C(=O)/C(=C\c2cccs2)SC1=S)NNC(=O)c1cccnc1,-16,.,-6%,15%,?,1,-4.0
Cc1cc(C)n(CCNC(=O)CCc2nnc(CCc3ccccc3)o2)n1,.,1.8%,-6%,14%,-2%,23,-0.3
Cc1ccc(S(=O)(=O)N2CCCC2C(=O)Nn2cnnc2)cc1 (centres undefined),8,-0.9%,?,8%,6%,10,-1.1
CC(/C=N/n1c(-c2cc(C)[nH]n2)n[nH]c1=S)=C\c1ccccc1,-3,2.1%,-37%[inhibitor],?,?,9,3.8
CCOc1ccc(/C=C2\SC(N3CCCCC3)=NC2=O)cc1,4,-4.2%,-63%[inhibitor],-4%,2%,1,-0.4
COCCCNC(=O)/C(C#N)=C/c1cc(C)[nH]c1C,-8,.,18%[15.4 µM],18%,-33%,7,-5.8
COCCCNC(=O)/C(C#N)=C/c1c(N2CCN(C)CC2)nc2c(C)cccn2c1=O,12,-13%,5%[15.4 µM],14%,-12%,5,-10
COC(=O)N1CCN(c2ccc(C)cc2)C(C)C1 (centres undefined),-10,.,6%,25%,8%,-20,-5.2
C/C(=N\OCC(=O)NC(C)C)c1cccs1,0,2.4%,-37%[inhibitor],12%,-13%,5,0.2
CCN(CC)S(=O)(=O)c1ccc(C(C)NC(=O)C2CCCN2C(=O)c2cccs2)cc1 (centres undefined),2,0.4%,34%,.,-1%,-7,.
CCOC(=O)N/N=C/c1ccc(Oc2ccccc2)cc1,10,1.0%,15%,-5%,1%,-13,-0.3

# Later entries:
SMILES,CtBP-E1A inh,ClpP mod,gsp agonist,Sfp PPTase inh,gsp antagonist,TRPV1 PAM,Menin MLL FP FL
CCCn1c2c(c(O)c(C(=O)Nc3nccs3)c1=O)CCCC2,1,-2.2%,?,12%,0%,14,5.5
Clc1ccc(-c2cnc(Oc3ccccc3)nc2)cc1,9,-1.0%,19%,3%,2%,-10,4.6
CCCCCC(=O)Nc1cc(S(=O)(=O)N2CCOCC2)ccc1N1CCN(C)CC1,3,0.1%,-6%,1%,4%,-1,.
COc1ccc(CN2CCc3ccccc3C2)cc1Br,.,1.8%,0%,79µM*,-2%,-4,1.7
O=C(NNC1=C(C(=O)C(F)(F)F)CCC1)c1cccc(Cl)c1,0,0.1%,-3%,22%,-6%,-2,0.4
COc1ccc(N=Cc2cc(Cc3ccccc3Cl)cc([N+](=O)[O-])c2O)cc1OC,.,1.1%,-26%,8%,-3%,28,-3.2
O=C(COC(=O)C1CC1)NC(=O)NCc1ccccc1,-19,-6.2%,12%[15.4 µM],21%,-9%,0,-0.1
COCCOC(=O)C1=C(C)NC2(O)c3ccccc3C(=O)C12O (centres undefined),0,1.5%,-27%,89µM*,11%,-8,0.0
Cc1c(NC(=S)N/N=C/C=C/c2ccccc2)c(=O)n(-c2ccccc2)n1C,-4,.,2%,9%,-6%,-5,0.0
COc1ccc2c(=O)c(-c3cnn(-c4ccccc4)c3)c(C)oc2c1,-18,-12%,-3%,12%,-19%,-15,-5.7
Cc1ccc(N(NC(=O)C(O)(c2ccccc2)c2ccccc2)C(=O)CCl)cc1,1,4.8%,1%,-29%,?,21,5.4
COc1ccccc1NC(=O)c1ccc(S(=O)(=O)N(C)C)cc1,-15,-1.3%,-15%,11%,8%,-12,6.4
Cc1ccc(C(=O)N2CCC(N3CCC(C(=O)N4CCOCC4)CC3)CC2)cc1C,7,-1.2%,4%,11%,-12%,-7,1.3
Fc1ccc(CSc2ccc(-c3ccco3)nn2)cc1,6,-11%,9%[15.4 µM],50µM*,15%,7,3.3
CC(=O)c1cccc(OCC(O)CNCC2COc3ccccc3O2)c1 (centres undefined),8,.,10%,?,-8%,-24,.
COC(=NC(C)C)NC(C)C,1,.,30%,21%,11%,27,5.1
COc1cc2c(cc1NC(=O)CSc1ccc(C)cc1)oc1ccccc12,1,?,-21%,-6%,-24%,7,4.1
O=C(c1ccco1)N1CCN(C(c2ccc(F)cc2)c2nnnn2Cc2cccs2)CC1 (centres undefined),0,0.5%,12%,-18%,-6%,4,0.2
Cc1ccc(C(=O)Nc2cccc(C(F)(F)F)c2)cc1Nc1cnccn1,-3,-4.6%,-29%,-10%,-6%,-12,-0.9
